Compound activity (PubChem)
BJeLR viability = compounds reducing viability of BJeLR cells | BJeLR fibroblasts viability, CellTiterGlo ATP luminescence, 48 h; HRASV12, hTERT and SV40 LT/ST transformed | viability loss activity score, % (test concentration not listed) | hit rate 0.64% among 30,000; in the data active = viability loss activity score above about 50%; about a fifth of its hits are not listed in these tables;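 also: higher score means fewer live cells and less ATP luminescence; stock transfer was 50 or 100 nL into about 30 µL; 0% = vehicle wells and 100% = a reference killing control; one replicate is shown; the record names a cut of 85%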
A1 inh = A1 inhibition. caspase activation, % (no concentration beside the values). MEF A1-2A-BIM cells, caspase-Glo luminescence, 3 h; percent of clofoctol signal, DMSO as zero. AID 2241. hit rate 0.51% among 21,000;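 active = most replicate scores above 10, or exactly half above 10 with mean activity above 10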;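 also: effector caspase 3 and 7 activity cleaving a DEVD luciferin substrate; 50 nL library stock added to about 30 µL; numbers are from one replicate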
* marks the source's active call; other numbers are inactive results; . = no result given. These rows are one share of the data. The share of hits here may be higher or lower than overall.

Results follow in this order: BJeLR viability | A1 inh
- COc1ccc(S(=O)(=O)Nc2cccc3c2O[C@@H](CN(C)Cc2ccccc2)[C@@H](C)CN([C@H](C)CO)C3=O)cc1
    15 | .
- COc1ccc(-c2nsc(SCC(N)=O)n2)cc1
    7.0 | 0.6
- O=C(Nc1ccc(F)cc1)C(=S)NC1CCCCC1
    8.3 | -3.8
- Cc1cccc(Nc2nnc(-c3ccc(C)c(S(=O)(=O)NCCO)c3)c3ccccc23)c1
    -9.7 | 0.7
- Cc1ccc(S(=O)(=O)Nc2ccc3c(c2)C(=O)N([C@H](C)CO)C[C@@H](C)[C@@H](CN(C)CC2CCCCC2)O3)cc1
    -2.6 | -0.7
- CCCn1cnc2cc(NCc3cccc(OC)c3)ccc21
    3.4 | .
- O=S(=O)(NC1CCCCC1Nc1ccccc1Br)c1ccccc1 (centres undefined)
    4.8 | -1.1
- Cn1c(SCC(=O)Nc2cccc(Cl)c2)nnc1-c1ccc(OCC(F)(F)F)nc1
    -2.4 | -0.4
- COc1ccc(NC(=O)N(C)C[C@@H]2Oc3c(NS(=O)(=O)c4ccc(Cl)cc4)cccc3C(=O)N([C@H](C)CO)C[C@H]2C)cc1
    -0.6 | .
- Cc1noc(C)c1NC(=O)N(C)C[C@H]1Oc2c(NC(=O)Nc3ccc(F)cc3)cccc2C(=O)N([C@H](C)CO)C[C@@H]1C
    -1.5 | .
- C[C@@H]1CN([C@@H](C)CO)C(=O)c2cc(NS(=O)(=O)c3ccc(Cl)cc3)ccc2O[C@@H]1CN(C)Cc1ccc(-c2ccccc2)cc1
    6.3 | 0.9
- C[C@@H]1CN([C@H](C)CO)C(=O)c2cccc(NC(=O)Nc3ccc(C(F)(F)F)cc3)c2O[C@H]1CN(C)C(=O)Nc1ccc(F)cc1
    4.0 | .
- N#Cc1nc(COc2cccc(Cl)c2)oc1N1CCCC1
    1.6 | 1.9
- CCn1c(-c2ccc(F)cc2)csc1=Nc1ccc(C)cc1
    9.1 | 1.3
- C[C@@H]1CN([C@@H](C)CO)C(=O)c2cc(NC(=O)Nc3ccc(C(F)(F)F)cc3)ccc2O[C@@H]1CN(C)C(=O)Nc1cccc2ccccc12
    -4.3 | 0.7
- C[C@H](CO)N1C[C@H](C)[C@@H](CN(C)C(=O)Nc2ccc3c(c2)OCO3)Oc2c(NC(=O)Nc3cccc4ccccc34)cccc2C1=O
    4.0 | .
- COc1ccc(NC(=O)Nc2ccc3c(c2)C(=O)N([C@@H](C)CO)C[C@@H](C)[C@@H](CN(C)S(C)(=O)=O)O3)cc1
    -0.9 | 0.6
- COC(=O)c1cccc(N=C(N)N=C(N)N)c1
    -1.1 | -0.6
- Cc1ccc(S(=O)(=O)N2c3ccccc3C(C)(c3ccccc3)CC2(C)C)cc1 (centres undefined)
    6.4 | -0.3
- C[C@H](CO)N1C[C@H](C)[C@@H](CN(C)C(=O)NC2CCCCC2)Oc2ccc(NS(C)(=O)=O)cc2C1=O
    -1.7 | 0.0
- C[C@@H]1CN([C@H](C)CO)C(=O)c2cc(NC(=O)C3CC3)ccc2O[C@H]1CN(C)C(=O)Nc1cccc2ccccc12
    -1.4 | 1.3
- COc1ccc(-c2nc(-c3ccc(C)cc3C)cs2)cc1
    -0.9 | 0.1
- C[C@@H]1CN([C@@H](C)CO)C(=O)c2cc(NS(=O)(=O)c3cn(C)cn3)ccc2O[C@@H]1CN(C)Cc1ccc(Oc2ccccc2)cc1
    -2.2 | -0.1
- C[C@@H]1CN([C@H](C)CO)C(=O)c2cc(NS(=O)(=O)c3ccc(F)cc3)ccc2O[C@H]1CN(C)S(=O)(=O)c1ccc(Cl)cc1
    -1.9 | 0.7
- O=c1[nH]c2ccc(F)cc2c(O)c1-c1ccccc1
    -6.7 | -0.9
- COC(CNC(=O)c1cc(-c2ccccn2)nc2ccc(S(=O)(=O)N3CCC(C)CC3)cc12)OC
    -5.3 | 0.1
- CC1CC(C)(C)NC(=S)N1CCC(=O)Nc1ccc2c(c1)OCCO2 (centres undefined)
    -0.3 | .
- CC(C)NC(=O)Nc1cccc2c1O[C@H](CN(C)Cc1ccc(-c3ccccc3)cc1)[C@@H](C)CN([C@H](C)CO)C2=O
    -1.6 | .
- CC(C)CCNC(=O)c1ccc2nc(-c3cccs3)c(-c3cccs3)nc2c1
    -3.8 | -0.1
- FC(F)(F)c1nc2ccccc2n1CCOc1ccccc1
    0.0 | -0.4
- Cc1ccc(S(=O)(=O)N(C)C[C@H]2Oc3c(NC(=O)NC(C)C)cccc3C(=O)N([C@@H](C)CO)C[C@@H]2C)cc1
    -6.5 | .
- CCC1CCCCN1C(=O)c1ccc(OC)cc1 (centres undefined)
    -0.8 | 0.2
- C[C@@H]1CN([C@@H](C)CO)C(=O)c2cc(NC(=O)C3CCCCC3)ccc2O[C@H]1CN(C)C(=O)NC1CCCCC1
    4.0 | 0.4
- Cc1c(Cc2ccccc2)c(Cl)n2c(nc3ccccc32)c1C#N
    64* | 1.7
- COc1cccc(NC(=S)N(CCN(C)C)C(C)c2ccncc2)c1 (centres undefined)
    4.0 | 0.4
- CC(C)(C)C(=O)CSc1nc(N)c(C#N)c(-c2cccs2)c1C#N
    -0.1 | 0.3
- C=CC1(C)C=C2CCC3C(C)(C)C(O[C@@H]4O[C@@H](CO)[C@H](O)[C@H]4O)CCC3(C)C2CC1O[C@@H]1O[C@H](C)[C@@H](OC)[C@H](O)[C@H]1O (some centres undefined)
    -5.6 | 0.1
- C[C@H](CO)N1C[C@H](C)[C@H](CN(C)Cc2ccncc2)Oc2ccc(NS(=O)(=O)c3ccc(Cl)cc3)cc2C1=O
    0.0 | -0.3
- CCN(CC)C(=O)COc1ccc2c(c1)C(=O)CC(C)(C)O2
    2.4 | .
- C[C@@H]1CN([C@H](C)CO)C(=O)c2cc(NC(=O)Cc3cn(C)c4ccccc34)ccc2O[C@@H]1CN(C)Cc1ccncc1
    -2.2 | 0.8
- C[C@@H]1CN([C@@H](C)CO)C(=O)c2cccc(NC(=O)NC3CCCCC3)c2O[C@@H]1CN(C)C(=O)NC1CCCCC1
    5.6 | .
- C[C@H](CO)N1C[C@H](C)[C@@H](CN(C)Cc2ccc3c(c2)OCO3)Oc2ccc(NS(=O)(=O)c3cn(C)cn3)cc2C1=O
    1.4 | 0.5
- C[C@H]1CN([C@@H](C)CO)C(=O)c2cc(NC(=O)Nc3ccc4c(c3)OCO4)ccc2O[C@@H]1CN(C)C(=O)Nc1cccc2ccccc12
    0.1 | 0.1
- O=C(OCc1cccc(COC(=O)c2ccc(Cl)cc2)n1)c1ccc(Cl)cc1
    -0.3 | .
- Cc1ccc(S(=O)(=O)N(C)C[C@@H]2Oc3ccc(NC(=O)CCC(F)(F)F)cc3C(=O)N([C@H](C)CO)C[C@H]2C)cc1
    4.4 | 0.5
- COc1ccc(CN(C)C[C@@H]2Oc3c(NC(=O)Nc4ccc5c(c4)OCO5)cccc3C(=O)N([C@H](C)CO)C[C@H]2C)cc1
    -9.0 | .
- C[C@H](CO)N1C[C@H](C)[C@@H](CN(C)C(=O)NC2CCCCC2)Oc2c(NC(=O)c3ccc(-c4nccs4)cc3)cccc2C1=O
    -2.4 | .
- C[C@H]1CN([C@@H](C)CO)C(=O)c2cc(NC(=O)CCC(F)(F)F)ccc2O[C@@H]1CN(C)C(=O)Nc1ccc(C(F)(F)F)cc1
    -3.6 | 0.2
- COc1ccc(Cl)cc1NC(=O)c1nc2nc(-c3ccccc3)cc(C(F)(F)F)n2n1
    -2.4 | -0.3
- CCOC(=O)c1ccc(NC(=O)C2C(=O)N(C)C3(C)CC2c2ccccc2O3)cc1 (centres undefined)
    -5.4 | 0.5
- Cc1cc(-c2nc(C(=O)N3CCCCC3)cs2)no1
    -4.1 | 0.5
- COc1ccc(/C=C/C(=O)CC(=O)/C=C/c2cccc(O)c2OC)cc1O
    0.9 | -0.2
- C[C@H](CO)N1C[C@H](C)[C@@H](CN(C)Cc2ccc(Cl)c(Cl)c2)Oc2ccc(NS(=O)(=O)c3ccc(Cl)cc3)cc2C1=O
    -5.4 | 0.2
- CCOc1ccc(N/C(N)=N/c2nc(C(F)(F)F)cc(C(F)(F)F)n2)cc1
    5.8 | -0.6
- C[C@H](CO)N1C[C@H](C)[C@H](CN(C)C)Oc2ccc(NC(=O)CCN3CCOCC3)cc2C1=O
    -3.4 | -0.3
- COc1cccc(-c2nc(CS(=O)(=O)CC(=O)NC3CCCC(C)C3C)c(C)o2)c1 (centres undefined)
    -2.2 | .
- C/C(CC1(O)C(=O)N(C)c2ccccc21)=N\O (centres undefined)
    2.0 | 0.3
- Cc1noc(C)c1S(=O)(=O)N1CCC(C)CC1
    0.5 | .
- Cc1noc(C)c1S(=O)(=O)Nc1cccc2c1O[C@@H](CN(C)Cc1ccc(C(F)(F)F)cc1)[C@@H](C)CN([C@H](C)CO)C2=O
    6.3 | .
- C[C@H](CO)N1C[C@H](C)[C@H](CN(C)C(=O)Nc2ccccc2)Oc2ccc(NC(=O)Nc3ccc4c(c3)OCO4)cc2C1=O
    2.2 | -0.2

More compounds.
mol	BJeLR viability	A1 inh
CNC[C@@H]1Oc2c(NC(=O)c3nc4ccccc4s3)cccc2C(=O)N([C@@H](C)CO)C[C@@H]1C	-1.3	.
COc1ccc(CNC(=O)C2CC(=O)N(C3CCCC3)C2)cc1 (centres undefined)	3.0	0.6
NNC(=O)c1csc(CS(=O)(=O)Cc2ccco2)n1	1.4	0.2
Cc1noc(C)c1NC(=O)Nc1ccc2c(c1)C(=O)N([C@H](C)CO)C[C@H](C)[C@H](CN(C)C(=O)NC1CCCCC1)O2	3.8	-1.3
C[C@@H]1CN([C@H](C)CO)C(=O)c2cc(NC(=O)Nc3ccccc3)ccc2O[C@@H]1CN(C)C(=O)NC1CCCCC1	3.5	-0.2
C[C@@H]1CN([C@H](C)CO)C(=O)c2cc(NC(=O)Nc3ccc(C(F)(F)F)cc3)ccc2O[C@@H]1CN(C)S(=O)(=O)c1ccccc1	2.9	0.0
CCc1cccc(OCC(=O)Nc2ccc(S(=O)(=O)Nc3nccs3)cc2)c1	7.1	-0.5
C[C@@H]1CN([C@H](C)CO)C(=O)c2cccc(NC(=O)Nc3ccccc3)c2O[C@H]1CN(C)Cc1ccc(Cl)c(Cl)c1	-3.4	.
COc1ccc(OC)c(-n2c(=S)[nH]c3cc(C(=O)NCc4ccc(F)cc4)ccc3c2=O)c1	-0.2	-0.7
COc1ccc(NC(=O)N(C)C[C@H]2Oc3c(cccc3N(C)C)C(=O)N([C@H](C)CO)C[C@@H]2C)cc1	0.7	.
C[C@@H]1CN([C@@H](C)CO)C(=O)c2cccc(N(C)C)c2O[C@@H]1CN(C)CC1CC1	0.3	.
Cc1ccc2nc(C)cc(NC3CCCCC3)c2c1	9.2	-0.5
Cc1ccnc(NS(=O)(=O)c2ccc(NC(=O)c3ccccc3Br)cc2)n1	-5.3	0.1
CCC(Sc1nc2ccc(Br)cc2c2nc3ccccc3n12)C(=O)NCC1CCCO1 (centres undefined)	4.5	0.5
Cc1oc(S(=O)(=O)N2CCOCC2)cc1-c1nc(-c2ccc(C(C)(C)C)cc2)no1	3.4	.

Filtered by structure, those above with a thiophene ring, fused or not (two)
mol	BJeLR viability	A1 inh
CC(C)CCNC(=O)c1ccc2nc(-c3cccs3)c(-c3cccs3)nc2c1	-3.8	-0.1
CC(C)(C)C(=O)CSc1nc(N)c(C#N)c(-c2cccs2)c1C#N	-0.1	0.3

The listing picks up with the four entries that preceded the break.
mol	BJeLR viability	A1 inh
Cc1ccc2nc(C)cc(NC3CCCCC3)c2c1	9.2	-0.5
Cc1ccnc(NS(=O)(=O)c2ccc(NC(=O)c3ccccc3Br)cc2)n1	-5.3	0.1
CCC(Sc1nc2ccc(Br)cc2c2nc3ccccc3n12)C(=O)NCC1CCCO1 (centres undefined)	4.5	0.5
Cc1oc(S(=O)(=O)N2CCOCC2)cc1-c1nc(-c2ccc(C(C)(C)C)cc2)no1	3.4	.
C[C@H]1CN([C@@H](C)CO)C(=O)c2cc(NC(=O)Cn3cnnn3)ccc2O[C@H]1CN(C)Cc1ccc(C(=O)Nc2ccccc2N)cc1	2.3	.
Nc1nc(N)c2nc(-c3ccccc3)c(N)nc2n1	0.1	-0.1
CC1(c2ccccc2)CC(C)(C)N(C(=O)CSc2ncn[nH]2)c2ccccc21 (centres undefined)	1.3	1.2
Cc1cccc(-n2c(=O)c3c4c(sc3n3c(=S)[nH]nc23)CCCC4)c1	-3.1	-0.1
CC1=C(C)CC(C(=O)NCc2ccc3c(c2)OCO3)C(C(=O)O)C1 (centres undefined)	-1.3	-0.2
C[C@H](CO)N1C[C@H](C)[C@H](CN(C)C(=O)Nc2ccccc2)Oc2c(NC(=O)Nc3ccc(C(F)(F)F)cc3)cccc2C1=O	-2.7	.
C[C@H]1CN([C@@H](C)CO)C(=O)c2cc(NC(=O)Nc3ccc(C(F)(F)F)cc3)ccc2O[C@@H]1CN(C)Cc1ccncc1	1.0	1.2
CC(C)c1ccc(NC(=O)C2C3C=CC4(CN(Cc5cccnc5)C(=O)C24)O3)cc1 (centres undefined)	-6.3	.
Cc1ccc(C(=O)COC(=O)C2c3ccccc3Oc3ccccc32)cc1C	0.7	-0.1
O=C(CSc1nnc2scc(-c3ccc(Cl)cc3)n12)NCc1ccc2c(c1)OCO2	-0.2	0.2
C[C@@H]1CN([C@H](C)CO)C(=O)c2cc(NC(=O)C3CCCCC3)ccc2O[C@@H]1CN(C)S(=O)(=O)c1ccc(Cl)cc1	3.7	0.5
CC(C)NC(=O)N(C)C[C@H]1Oc2ccc(NS(=O)(=O)c3ccc(Cl)cc3)cc2C(=O)N([C@@H](C)CO)C[C@H]1C	-1.7	0.4
